# Screening results as filed in PubChem BioAssay.
# CtBP-E1A blk – blocks the CtBP interaction with E1A; AlphaScreen GST-E1A/His-CtBP binding, 1536-well; hits give low values; control for the full effect not named in the record; activity change, % (no concentration beside the values); actives 0.49% (n = 340,000); AID 651724; in the data active means activity change below about -65%; inconclusive means about -30% to -65%; inactive means above about -30%; note: % is set by controls: 0 for no effect and ±100 for the full control effect; compound concentration not given in the record
#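 Homogeneous bead-based format: GST-tagged E1A captured on glutathione donor beads, His-tagged CtBP on nickel acceptor beads; compounds precede bead addition by 2 h at 37 °C.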
# Six1-Eya2 blk – Six1/Eya2 interaction inhibition; activity change, % (test concentration not listed); actives 0.56% (n = 360,000); AlphaScreen GST-Six1/His-Eya2 binding, biochemical; hits give low values; control for the full effect not named in the record; in the data active = activity change below about -65%; inconclusive = about -30% to -65%; inactive = above about -30%; note: % is set by controls: 0 for no effect and ±100 for the full control effect; compound concentration not given in the record
#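 GST-Six1 + His-Eya2 (5X stock: 250/500 nM); Tris pH 8.0, 300 mM NaCl, 0.05% BSA, 0.02% Tween 20; GSH donor/Ni acceptor beads; 1 h 37 °C dark; AlphaScreen readout.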
# D2 agonist – activates the human D2 dopamine receptor | DiscoveRx PathHunter D2 beta-arrestin, luminescence, 90 min; 100% = 57 uM dopamine signal | actives 0.084% (n = 360,000) | activation, % (test concentration not listed); in the data active = activation above about 40%; inconclusive = about 15% to 40%; inactive = below about 15%; note: compound concentration not given in the record; the text of the record calls up to 30% inactive
# Target sequence (P14416 whole entry, looked up): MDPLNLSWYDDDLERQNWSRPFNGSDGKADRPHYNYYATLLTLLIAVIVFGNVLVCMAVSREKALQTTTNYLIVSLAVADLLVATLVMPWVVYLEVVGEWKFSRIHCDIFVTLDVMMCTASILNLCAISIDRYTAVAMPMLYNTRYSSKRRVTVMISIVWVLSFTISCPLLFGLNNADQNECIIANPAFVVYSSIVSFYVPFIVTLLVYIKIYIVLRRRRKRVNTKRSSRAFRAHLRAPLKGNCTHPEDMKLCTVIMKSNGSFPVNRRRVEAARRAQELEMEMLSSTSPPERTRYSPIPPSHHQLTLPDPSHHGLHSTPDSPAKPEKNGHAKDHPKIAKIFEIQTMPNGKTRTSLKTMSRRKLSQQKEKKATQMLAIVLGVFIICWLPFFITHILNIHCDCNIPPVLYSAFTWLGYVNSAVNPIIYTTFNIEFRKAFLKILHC
#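 DiscoveRx PathHunter D2 beta-arrestin cells (2,100/well) attached overnight, then compound-stimulated 90 min at 37 C in HBSS/10 mM HEPES/0.1% Tween-20 buffer; beta-galactosidase complementation read by luminescence after 1 h at ambient temperature. Dopamine 57 uM final (EC100) as control.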
# PINK1 modulator – modulators of PINK1 expression. PINK1 immunofluorescence, high-content cytometry, 24 h. actives 0.2% (n = 410,000). Potency, µM (top dose mostly 76.6 µM), for inactives: at the highest dose activation (PINK1 increase), usual class: activators; active = well fitted activation curve with a large enough effect; inconclusive = small, poorly fitted or top-dose-only effect; inactive = flat fitted curve, though single readings scatter; cell line not stated here;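 note: potency is the fitted concentration of half-maximal effect; % of control where 0% means no effect; nearly all actives have a fitted effect of over 65% in size; a mitochondrial uncoupler was the plate control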
#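 PINK1 protein, normally rapidly degraded, was detected by immunofluorescence after 24 hour compound treatment of a stable cell line. Titration data (5 concentrations) came from laser-scanning cytometry, with CCCP-treated wells as controls.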
# TRPML1 agonist – human mucolipin-1 channel agonism; Q9GZU1; activation, % (no concentration beside the values); TRPML1-expressing cells, Ca2+ dye fluorescence, FDSS; host cell line not named in the record; reference of the full effect not given here; AID 624414; actives 0.12% (n = 410,000); in the data active = activation above about 50%; inconclusive = about 30% to 50%; inactive = below about 30%; note: 0% is about no effect; the text of the record puts the active cut at 80%
# Target sequence (Q9GZU1 whole entry, looked up): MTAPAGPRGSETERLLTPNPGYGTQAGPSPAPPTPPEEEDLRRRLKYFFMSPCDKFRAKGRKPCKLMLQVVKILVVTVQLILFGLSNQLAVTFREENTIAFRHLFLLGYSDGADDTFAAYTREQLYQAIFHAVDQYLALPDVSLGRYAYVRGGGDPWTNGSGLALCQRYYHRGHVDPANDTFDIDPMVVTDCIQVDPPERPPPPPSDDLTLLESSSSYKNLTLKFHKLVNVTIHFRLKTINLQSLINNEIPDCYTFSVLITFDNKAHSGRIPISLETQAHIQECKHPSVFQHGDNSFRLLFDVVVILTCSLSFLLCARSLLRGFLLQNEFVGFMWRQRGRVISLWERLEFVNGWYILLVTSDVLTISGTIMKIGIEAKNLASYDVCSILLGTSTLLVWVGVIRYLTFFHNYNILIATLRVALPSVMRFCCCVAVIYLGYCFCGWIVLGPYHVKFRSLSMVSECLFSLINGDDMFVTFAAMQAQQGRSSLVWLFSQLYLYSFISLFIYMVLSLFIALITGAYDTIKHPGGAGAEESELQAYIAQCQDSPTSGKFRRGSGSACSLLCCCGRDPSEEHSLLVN
#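 Tet-induced TRPML1-DL cells, 1,500 per well, cultured overnight, were loaded with a no-wash Ca2+ dye for 45–90 min. Calcium fluorescence was recorded on the FDSS for 110 s after compound addition, before the EC80 agonist (4 uM 54-4) was added.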
# D2 potentiator – human D2 receptor positive allosteric modulation; P14416; DiscoveRx D2 beta-arrestin cells, luminescence, 90 min; 100% = 57 uM dopamine signal; potentiation, % (test concentration not listed); actives 0.23% (n = 360,000); active = potentiation of 50% or more; inconclusive = 30% to 50%; inactive = 30% or less;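 note: compound concentration not given in the record; tested on top of an EC20 dose of dopamine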
#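 PathHunter D2 cells, attached overnight at 37 deg C, received compound in DMSO plus dopamine at EC20 (50 nM final) for 90 min at 37 deg C. Beta-arrestin recruitment was read as luminescence after 1 h with detection reagent at ambient temperature.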
# The depositor's hits bear a star; u = inconclusive; x = not tested or not shown; [ ] = another dose, or the depositor's remark.
SMILES	CtBP-E1A blk	Six1-Eya2 blk	D2 agonist	PINK1 modulator	TRPML1 agonist	D2 potentiator
Cc1ccsc1C(=O)N1CCCC(N2CCN(c3cccc(Cl)c3)CC2)C1 (stereo not drawn)	-11	-13	-5.8	-1.5%	0.6	-19
CN(C)C(=O)COc1ccc2cc(-c3ccccc3)c(=O)oc2c1	1	-1	-2.1	0.7%	-0.2	-5
N/C(=N\OC(=O)CC1CCCCC1)c1ccc(Cl)cc1	13	14	6.0	8.6%	1.3	7
O=C(CSc1ccc2ccccc2n1)N/N=C/c1ccccc1O	u	u	-0.1	-1.7%	4.3	-16
NC(=O)NCc1cccs1	-16	2	-4.5	0.0%	4.2	-1
Cc1oc2c(CN3CCCC3)c(O)ccc2c(=O)c1Oc1ccccc1Br	3	0	3.0	5.6%[38.3 µM]	-0.3	17
CN(CC(=O)Nc1cccc(F)c1)C(=O)CCc1nc2sc3c(c2c(=O)[nH]1)CCCC3	1	-8	-8.9	8.4%	-0.1	-7
CCN(CC)CCNC(=O)C(=O)Nc1cc2c3c(c1)CC(=O)N3CCC2	4	5	-4.2	1.0%	-0.3	-18
Cc1cnc(C(=O)OCC(=O)Nc2cccc3ccccc23)cn1	x	-4	1.3	0.7%	-1.1	11
Cc1nn(C)c(C)c1N1C(=O)c2cccc3c(Br)ccc(c23)C1=O	-2	0	-2.5	5.4%	-0.9	-12
CCC(C)(C)NC(=O)c1cc(OC)c(OC)cc1[N+](=O)[O-]	7	-21	-2.8	4.9%	-0.4	24
Cc1ccc2oc(=O)n(CCOc3ccccc3C)c2c1	3	5	0.0	1.3%	4.2	-18
COc1ccc(NC(=O)CN2C(=O)/C(=C3\SC(=S)N(C4CCS(=O)(=O)C4)C3=O)c3ccccc32)cc1 (stereo not drawn)	2	-9	8.4	2.6%	5.7	1
CN(C(=O)c1cccc(NC(=O)Cc2ccc(NC(=O)C3CCN(C(=O)c4ccccc4)CC3)cc2)c1)C1CCCC1	-4	2	0.2	0.5%	1.6	-1
COc1ccc(S(N)(=O)=O)cc1C(=O)OCCCOC(=O)c1cc(S(N)(=O)=O)ccc1OC	3	7	0.1	3.1%	0.4	-2
Cc1nn(-c2ccccc2)c2nc(N)c(C#N)c(-c3ccc(C(C)(C)C)cc3)c12	5	12	-4.6	9.2%	0.3	-4
Cc1cccc(N2CCN(C(=O)c3oc4ccc(Br)cc4c3C)CC2)c1C	x	-4	-1.3	6.9%	0.4	-2
COc1ccc(-n2cc(CN(C)CCO)c(-c3cccc(F)c3)n2)cc1	x	-1	-3.3	0.3%	0.7	-9
O=C(NCc1ccc(Cl)c(Cl)c1)c1cc(C2CCCCN2C(=O)c2cccs2)on1 (stereo not drawn)	3	-4	-2.9	0.2%	-0.3	-10
CN1/C(=C/C=N/n2cnnc2)C(C)(C)c2ccccc21	6	3	-0.5	x	0.0	2
CCCCN1C(=O)NC(NS(=O)(=O)c2ccc(N)cc2)(C(F)(F)F)C1=O (stereo not drawn)	6	6	3.1	3.1%[38.3 µM]	1.2	5
CC(=O)c1ccc(N2CCN(C(=O)CNS(=O)(=O)c3ccc4c(c3)OCCCO4)CC2)c(F)c1	-20	9	6.5	0.3%	-0.5	19
O=C(O)[C@@H]1CSC2c3ccccc3C(=O)N21 (stereo partly drawn)	8	0	6.6	-2.3%	1.7	-4
Cc1ccc(CCSc2ccc(C(C)C)cc2)cn1	0	47	2.3	3.3%	3.2	-3
COc1ccccc1C(=O)COC(=O)CNS(=O)(=O)c1ccc(C)cc1	5	9	-9.0	-1.2%	-0.3	-3
Cc1nn(-c2ccc(Cl)c(Cl)c2)c(=O)c2ccccc12	-3	2	-5.2	-2.1%	-0.2	-11
CCCCN1CCS(=O)(=O)N(Cc2ccccc2Br)CC(C(=O)OC)C1 (stereo not drawn)	-2	1	-3.0	1.9%	11	-7
Cc1cc(Cl)cc(C)c1OCCOCCNCc1ccccc1	x	-2	-9.4	-1.9%	-0.7	-59
O=C(c1ccc2c(c1)OCCO2)N(c1ccccn1)C1CCCCC1	1	4	-1.2	3.4%	0.9	-1
CC[C@H](C)C(C(=O)N1CCN(C(=O)OC(C)(C)C)CC1)n1cc(C(Cc2ccc(O)cc2)NC(=O)OC(C)(C)C)nn1 (stereo partly drawn)	-3	1	5.6	-1.7%	-0.3	12
S=C(Nc1ccccc1)c1nc2ccccc2s1	x	-13	-4.1	1.7%	1.5	-11
Nc1cc(N)c2c(c1)C(=O)c1ccccc1-2	u	-18	-9.5	-1.7%	-0.5	-9
COc1cccc(N2CC(C(=O)NC3CCCCC3)CC2=O)c1 (stereo not drawn)	3	3	-2.6	-1.3%	-0.8	-1
O=C(CSc1ccc(-c2ccc(F)cc2)nn1)NCCc1ccccc1	-11	-12	0.2	2.1%	0.7	-7
Cc1nc(SCC(=O)N2CCOCC2)c2ccsc2n1	6	-1	2.8	1.0%	0.5	-16
CC(=O)c1ccccc1NC(=O)COC(=O)CSCC(=O)Nc1cc(C)on1	5	4	0.7	-0.4%	0.0	9

# A draw from above in order of length of the SMILES, rising.
SMILES	CtBP-E1A blk	Six1-Eya2 blk	D2 agonist	PINK1 modulator	TRPML1 agonist	D2 potentiator
S=C(Nc1ccccc1)c1nc2ccccc2s1	x	-13	-4.1	1.7%	1.5	-11
Cc1nc(SCC(=O)N2CCOCC2)c2ccsc2n1	6	-1	2.8	1.0%	0.5	-16
Cc1nn(-c2ccc(Cl)c(Cl)c2)c(=O)c2ccccc12	-3	2	-5.2	-2.1%	-0.2	-11
O=C(c1ccc2c(c1)OCCO2)N(c1ccccn1)C1CCCCC1	1	4	-1.2	3.4%	0.9	-1
CCCCN1CCS(=O)(=O)N(Cc2ccccc2Br)CC(C(=O)OC)C1 (stereo not drawn)	-2	1	-3.0	1.9%	11	-7
CC[C@H](C)C(C(=O)N1CCN(C(=O)OC(C)(C)C)CC1)n1cc(C(Cc2ccc(O)cc2)NC(=O)OC(C)(C)C)nn1 (stereo partly drawn)	-3	1	5.6	-1.7%	-0.3	12

# Single entries from the entries so far.
# CC[C@H](C)C(C(=O)N1CCN(C(=O)OC(C)(C)C)CC1)n1cc(C(Cc2ccc(O)cc2)NC(=O)OC(C)(C)C)nn1 (stereo partly drawn) – D2 agonist = 5.6
# O=C(c1ccc2c(c1)OCCO2)N(c1ccccn1)C1CCCCC1 – D2 potentiator = -1
# COc1ccccc1C(=O)COC(=O)CNS(=O)(=O)c1ccc(C)cc1 – Six1-Eya2 blk = 9

# Additional structures:
SMILES	CtBP-E1A blk	Six1-Eya2 blk	D2 agonist	PINK1 modulator	TRPML1 agonist	D2 potentiator
COC(=O)c1ccc(COC(=O)c2cnc(Cl)c(Cl)c2)cc1	3	9	0.8	12%	0.4	2
COc1ccc2c(C)nc(Nc3nc(-c4ccccc4)cc(=O)[nH]3)nc2c1	-17	-23	7.7	5.2%	1.9	-1
CC(=O)c1c(C)oc2ccc(NS(=O)(=O)c3cccs3)cc12	-7	-6	-1.6	1.7%	1.6	-7
COc1ccc(Cl)cc1NC(=O)CN1C(=O)NC(C)(Cc2ccc(OC)c(OC)c2)C1=O (stereo not drawn)	x	-1	-0.8	1.3%	0.0	-2
COc1cc(/C=C/c2cc(OC(C)=O)c3ccccc3n2)c(OC(C)=O)c([N+](=O)[O-])c1	-7	-1	-0.3	x	-0.3	-14
O=C(Nc1cc(C(F)(F)F)ccc1-n1cncn1)c1ccc([N+](=O)[O-])o1	-25	-29	7.5	16%	1.4	u
O=C(N=Nc1c(O)[nH]c2ccc(Br)cc12)c1ccccc1-n1cccc1	u	u	-2.8	u	3.1	-15
CCc1nc2c(OCc3c(C)noc3C)cccn2c1N(C)C(=O)C(C)C	12	0	7.2	0.9%	-0.7	-7
COc1ccc(OC)c(NC(=O)CCC(=O)Nc2nnc(C(C)C)s2)c1	0	-4	-0.9	1.1%	-0.1	-20
O=C(NCCc1ccccc1)c1ccc(-c2ccc(F)cc2)o1	0	-1	0.8	-0.5%	1.4	5
CCc1noc(C)c1C(=O)N1CCN(S(=O)(=O)c2ccc(Cl)cc2)CC1	8	4	-6.3	-1.5%	-0.2	-2
COCCNc1nc(-c2cc(C)n(CCc3ccc(OC)cc3)c2C)cs1	-10	-8	-1.9	u	0.0	-12

# As a working copy, some entries already given:
SMILES	CtBP-E1A blk	Six1-Eya2 blk	D2 agonist	PINK1 modulator	TRPML1 agonist	D2 potentiator
CCc1noc(C)c1C(=O)N1CCN(S(=O)(=O)c2ccc(Cl)cc2)CC1	8	4	-6.3	-1.5%	-0.2	-2
COCCNc1nc(-c2cc(C)n(CCc3ccc(OC)cc3)c2C)cs1	-10	-8	-1.9	u	0.0	-12

# New compounds follow:
SMILES	CtBP-E1A blk	Six1-Eya2 blk	D2 agonist	PINK1 modulator	TRPML1 agonist	D2 potentiator
CCn1c(Cc2cccs2)nnc1SCC(=O)NC(C)(C)C	4	10	-1.6	-0.5%	-1.4	-2
O=C(OCCN1CCOCC1)c1ccccc1Cl	5	2	1.6	-1.0%	0.3	-2
O=C(CSc1nncn1-c1ccccc1F)NC1CC1	7	1	u	-3.1%	1.3	-4
O=C(Nc1ccc2c(c1)N(Cc1ccccc1)C(=O)c1ccccc1S2)NC1CC1	1	-9	-1.0	-0.5%	9.5	-3
O=C(C1=C[C@@H](C2CC2)C[C@@H](OCc2ccc(CO)cc2)O1)N1CCOCC1	6	5	0.0	0.1%	-0.6	-4
Cc1ccccc1CSc1nc2ccccc2c(=O)n1C	3	0	-1.1	12%	2.1	0
COc1ccc(N2CCN(C(=O)CN3CCN(C(c4ccccc4)c4ccccc4)CC3)CC2)cc1	u	u	-3.4	u	2.7	-27
COc1ccc(OC(=O)c2cccc([N+](=O)[O-])c2)c(C(=O)/C=C/c2cccs2)c1	4	-2	-5.3	-0.7%	0.6	-24
C#Cc1cccc(C(=O)N2CCCC(CCC(=O)NCc3ccccc3F)C2)c1 (stereo not drawn)	1	4	1.0	9.5%	0.7	5
CCC1(C)NC(C(=O)O)Cc2c1[nH]c1ccccc21 (stereo not drawn)	x	-1	-2.3	-1.3%	0.0	-3
CCC(=O)NC(=S)Nc1ccccc1F	3	10	-2.6	-0.2%	-0.9	-11
O=C(Nc1ccccc1)C1=C[C@H](C2CCCCC2)C[C@H](OCc2ccc(CO)cc2)O1	1	-5	0.2	9.6%	0.7	-6
O=C(Cn1ncc2c3ccccc3n(Cc3ccc(F)cc3)c2c1=O)N1CCN(c2ncccn2)CC1	-7	-17	-0.2	-0.8%	-0.3	-14
CCCS(=O)(=O)NC(=O)C1(C)CCCN(C(=O)c2c(F)cccc2F)C1 (stereo not drawn)	-1	14	-3.6	0.6%	-0.3	-6
COCCN1C[C@@H](CO)O[C@@H](n2cnc3c(NC(C)C)ncnc32)C1	3	0	-8.2	0.6%	-0.9	2
C/C(N)=C(/C#N)C(=O)CSc1cc(C)c2cc(C)cc(C)c2n1	-3	-3	-0.3	6.0%	0.2	0
Cc1ccc(S(=O)(=O)NCCN2CCOCC2)cc1	2	-9	0.1	1.2%	0.1	-10
O=C(NCc1ccco1)c1ccc(CS(=O)Cc2cccc(Cl)c2)o1 (stereo not drawn)	-1	-1	-2.6	-1.5%	-1.2	-2
CCOc1ccc(NS(=O)(=O)c2ccc3[nH]c(=O)[nH]c3c2)cc1	-1	-6	0.1	2.5%	0.5	-1
